697 NFkB inh = inhibitors of the PMA/ionomycin-induced NF-kB reporter in 697 B cells; inhibition, % at 4 µM; 697 B-cell NF-kB luciferase reporter, 16 h; AID 435022; hit rate 0.33% among 330,000; in the data active = inhibition above about 35%
EBI2 antag = EBI2 (human) antagonism | AID 651636 | P32249 | hit rate 0.81% among 360,000 | inhibition, % at 5 µM | EBI2 beta-arrestin recruitment, luminescence, 7a,25-OHC stimulated; in the data active = inhibition above about 38%;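 note: enzyme fragment complementation signal reports receptor beta-arrestin coupling in cells; 0% = agonist plus DMSO wells and 100% = wells without agonist; some results beyond the cut were filed as inactive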
UBC13 polyUb = human UBC13 polyubiquitination inhibition | P61088 | UBC13 polyubiquitin chain formation, TR-FRET | inhibition, % at 20 µM | hit rate 0.47% among 330,000 | AID 485273; in the data active = inhibition above about 45%, passing the limit was not always enough; inconclusive = no clear call, values can overlap the other calls
Target sequence (P61088 whole entry, looked up): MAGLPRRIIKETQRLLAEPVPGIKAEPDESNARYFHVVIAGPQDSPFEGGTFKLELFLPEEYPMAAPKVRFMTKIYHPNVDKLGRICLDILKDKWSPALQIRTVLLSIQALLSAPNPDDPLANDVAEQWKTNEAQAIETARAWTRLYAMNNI
Jurkat NFkB inh = lowers PMA/ionomycin-induced NF-kB signal in Jurkat cells. PMA/ionomycin-induced NF-kB luciferase reporter, luminescence. inhibition, % at 4 µM. hit rate 0.53% among 330,000. AID 435003
SENP8 block = blocks the human protease SENP8; Q96LD8; purified SENP8, Z-RLRGG-aminoluciferin cleavage, luminescence; inhibition, % at 10 µM; hit rate 1.2% among 330,000
Target sequence (Q96LD8 whole entry, looked up): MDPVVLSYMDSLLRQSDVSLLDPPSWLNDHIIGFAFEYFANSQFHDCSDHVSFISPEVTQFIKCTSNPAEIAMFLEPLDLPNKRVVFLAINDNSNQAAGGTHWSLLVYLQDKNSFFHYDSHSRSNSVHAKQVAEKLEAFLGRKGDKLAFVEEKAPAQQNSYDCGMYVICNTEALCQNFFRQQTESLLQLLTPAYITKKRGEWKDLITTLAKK
CCR6 antagonist = antagonists of human CCR6 receptor; CHO-K1 CCR6 PathHunter beta-arrestin, luminescence, CCL20-stimulated; inhibition, % at 20 µM; hit rate 0.49% among 340,000; AID 493098;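 active = compounds whose inhibition of the agonist-driven luminescence signal at 20 µM reaches about 50%, limit read from the data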;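 note: cells stimulated with CCL20 at 14 nM final; plate controls were DMSO with CCL20 for no effect and DMSO without agonist for full effect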
Target sequence (P51684 whole entry, looked up): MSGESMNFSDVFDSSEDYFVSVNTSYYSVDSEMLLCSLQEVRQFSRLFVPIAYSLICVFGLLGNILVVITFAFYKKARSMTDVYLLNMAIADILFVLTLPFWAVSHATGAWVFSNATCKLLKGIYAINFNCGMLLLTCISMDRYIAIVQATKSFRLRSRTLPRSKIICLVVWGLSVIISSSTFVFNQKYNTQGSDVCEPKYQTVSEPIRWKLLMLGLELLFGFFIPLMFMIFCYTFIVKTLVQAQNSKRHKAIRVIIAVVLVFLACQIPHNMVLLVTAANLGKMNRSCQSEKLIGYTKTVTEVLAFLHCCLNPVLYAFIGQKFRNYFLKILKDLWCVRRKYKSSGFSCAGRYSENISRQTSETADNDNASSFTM
Gli-Sufu antag = blocks Gli-Sufu signaling in a luciferase reporter. AID 588413. Sufu-KO-LIGHT fibroblasts, Gli luciferase reporter luminescence. hit rate 0.74% among 340,000. inhibition, % at 5 µM;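 active = inhibition above about 55%, limit read from the data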;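 note: 0% = DMSO-treated cells and 100% = wells with medium but no cells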
Active calls of the source: *; ? = inconclusive; nt = no result given. Cut-off read from the data, not from the text of the source, unless noted: active = inhibition above about 50%; inactive = the rest.

SMILES	697 NFkB inh	EBI2 antag	UBC13 polyUb	Jurkat NFkB inh	SENP8 block	CCR6 antagonist	Gli-Sufu antag
Cc1onc(-c2c(F)cccc2Cl)c1C(=O)Nc1cccc2nsnc12	9.2	22.3	21.3	10.8	4.1	28.0	-4.3
O=C(c1ccc2nc(-c3ccco3)c(-c3ccco3)nc2c1)N1CCN(c2ccccc2)CC1	8.8	14.4	-23.0	8.1	13.6	4.8	6.6
CCCC(=O)Nc1nn(C)c2nc3c(C)cccc3cc12	17.5	-6.1	2.3	1.0	6.0	4.8	13.8
Cc1cccc(NC(=O)c2sc3nc(-c4ccc(F)cc4)cn3c2C)n1	-3.1	5.7	21.7	15.8	4.6	-7.0	7.5
Cc1cc(-n2c(=O)c(C#N)cc3c(=O)n4cccc(C)c4nc32)no1	-6.4	-3.7	-12.4	5.0	-11.9	-1.2	3.2
O=c1[nH]c2cc3c(cc2cc1C(c1nnnn1CC1CCCO1)N1CCCCCC1)OCO3 (centres undefined)	29.9	nt	1.4	11.1	1.2	nt	nt
COC(=O)C1=CN(C2CC2)C=C(C(=O)OC)C1c1ccccc1OC	20.2	-17.1	14.2	15.9	1.6	1.8	-0.4
COc1ccccc1/C=N/Nc1cc(N(C)C)nc(N(C)C)n1	4.3	16.3	-22.1	3.0	21.6	12.0	11.5
CC(=O)Nc1nc2n(n1)C(c1ccc(F)cc1)C=C(c1ccccc1)N2 (centres undefined)	-12.8	-1.8	13.5	-1.5	-3.8	0.0	-0.8
CCn1c(=N)c(S(=O)(=O)c2ccc(F)cc2)cc2c(=O)n3ccccc3nc21	-11.0	4.1	-2.7	-3.8	1.9	-2.5	12.1
COc1cccc(C2C=C(c3cccs3)Nc3ncnn32)c1OC (centres undefined)	5.9	-10.8	-8.4	0.0	-5.2	-16.3	24.3
CCOC(=O)c1ccc(NC(=O)CSc2nnc(-c3cccs3)n2C)cc1	13.9	-13.2	5.4	-14.7	9.1	-9.5	-16.8
CN1CCN(C(=O)c2cc3c(ccc4ccccc43)oc2=O)CC1	-12.9	4.3	-1.7	-18.0	-5.6	-12.7	1.2
Nn1c(-c2cccs2)nc2sc3c(c2c1=O)CCCC3	-162.5	12.9	-3.3	-135.6	71.4*	-9.7	-5.4
Cc1c(O)ccc2c3c(c(=O)oc12)CCCC3	1.4	-7.9	22.9	4.3	-4.6	-3.7	-1.6
N#CC(C(=O)NCc1ccccc1)c1nc2ccccc2nc1N1CCCC1 (centres undefined)	3.8	11.2	-38.4	-4.6	-5.2	-13.0	-3.4
Cc1ccc(NC(=O)CC2SC3=NCCCN3C2=O)c(C)c1 (centres undefined)	15.6	-6.4	2.1	6.1	-3.3	-8.3	-6.6
CCOC(=O)c1cc2c(=O)n3ccccc3nc2n(Cc2ccco2)c1=NC(=O)c1cccnc1	1.2	-9.1	7.6	-17.6	-4.4	6.5	6.7
CCCCOc1ccccc1C1C(C(=O)OC)=CN(CC)C=C1C(=O)OC	12.5	3.5	8.6	-13.0	-7.2	6.9	1.5
CN1/C(=N\O)c2cccc3cccc1c23	-14.8	-9.9	0.3	-5.4	4.1	-31.0	-3.8
CC(=O)C1=C(C)NC(SCC(=O)c2cc(Cl)ccc2Cl)=C(C#N)C1c1ccco1 (centres undefined)	-20.8	20.7	-29.7	12.4	-7.7	20.0	69.3*
Cc1cc(N2CCOCC2)nc2cc(O)ccc12	-30.4	-5.6	10.0	-50.5	-13.7	-3.6	7.5
CN(C)C(=O)CSc1nnc(-c2cc(-c3cccs3)nc3ccccc23)o1	4.4	-16.0	24.6	26.2	-10.3	9.4	17.6
O=C1NC(=O)[C@@H]2C3c4ccccc4C=CN3[C@H](C(=O)c3cccs3)[C@H]12 (some centres undefined)	-22.6	nt	-7.8	1.6	13.9	nt	nt
Fc1ccc(Br)cc1C1C=C(c2ccc(Br)s2)Nc2ncnn21 (centres undefined)	12.5	1.6	2.0	13.5	-3.3	34.4	-9.6
COC(=O)c1cc2c(=O)n3ccccc3nc2n(Cc2cccnc2)c1=N	11.5	nt	-0.2	-9.8	-4.2	5.8	2.8
CCCn1c2ccccc2c2nc3ccccc3nc21	-21.9	28.7	46.6*	-22.5	-4.6	16.1	-4.4
CCNc1cccc2c1C(=O)N(C)C2=O	-26.0	-0.3	-4.2	-12.9	-8.8	-16.5	-1.5
CCN1C(=O)/C(=C2/Sc3ccc(OC)cc3N2C)SC1=Nc1cccc(O)c1	18.7	1.1	-11.5	-12.8	-2.5	8.6	-1.7
CCOC(=O)N1CCN(C(=O)c2ccc3nc4ccc(Cl)cc4c(=O)n3c2)CC1	23.0	1.0	39.6	10.5	-7.3	-2.8	-10.2
C=C(C)CC1Nc2ccccc2NC1CC(=C)C (centres undefined)	-6.2	-13.4	-4.8	12.1	-7.2	16.6	-7.5
CCN1C(=O)c2cccc3c(S(=O)(=O)Nc4ncccc4C)ccc1c23	33.6	-4.0	2.1	7.5	-4.7	-0.8	9.3
O=C(c1nc2n(n1)C(c1ccc(Cl)cc1)C=C(c1ccccc1)N2)N1CCOCC1 (centres undefined)	-0.1	-0.5	-3.4	-19.2	-8.1	13.2	-0.3
CCN(CC)c1ccc2oc(=O)c(C)nc2c1	31.3	-9.7	-45.2	17.4	0.9	-6.4	10.9
Cc1nn(Cc2ccccc2)c(C)c1NC(=O)c1cc2nc(-c3ccco3)cc(C(F)(F)F)n2n1	17.2	4.8	-6.5	-5.7	4.8	8.2	18.9
Nc1c(C(=O)NCCN2CCOCC2)c2nc3ccccc3nc2n1CCc1ccccc1	10.4	10.4	5.9	1.9	-0.4	3.9	10.9
CCOC(=O)c1cnn2c(C(F)(F)F)cc(-c3ccco3)nc12	12.2	-0.1	6.6	6.4	-2.7	1.8	-2.7
COC(=O)c1ccccc1NS(=O)(=O)c1ccc2c3c(cccc13)C(=O)N2	-2.0	13.8	-1.6	-7.4	-18.4	12.9	24.6
CC(C(=O)O)N1C(=O)c2cccc3cccc1c23 (centres undefined)	-3.8	-4.0	4.7	-1.0	4.5	6.3	1.9
CCOc1cc(C2C(C(=O)OC)=CN(C3CCCC3)C=C2C(=O)OC)cc(Br)c1O	3.4	20.1	?	1.5	-3.2	28.2	-2.8
O=c1[nH]c2ccccc2nc1-c1cccs1	-34.9	-10.2	16.6	-45.6	-2.1	4.4	-8.0
CCOC(=O)C1CCN(c2nc3cc(OC)ccc3cc2C#N)CC1	-14.1	5.5	29.7	9.2	7.9	-1.5	-2.5
CCCN(CCC)c1nc2ccccc2nc1C(C#N)C(=O)OCCOC (centres undefined)	1.4	22.3	-5.2	3.4	2.0	30.9	4.7
COc1cccc(C2=CC(c3ccc(N(C)C)cc3)n3ncnc3N2)c1 (centres undefined)	6.0	nt	-4.0	-0.8	-6.6	nt	nt
COCc1cc(=O)n2c([nH]c3ccccc32)c1C#N	2.9	-10.4	-3.0	0.8	7.6	-5.5	1.8
Cc1nn(-c2ccccc2)c2c1P(=O)(O)/C(=C1\N(C)c3ccccc3C1(C)C)C=N2	15.3	13.9	3.8	3.4	-8.2	20.8	6.5
COc1ccc(C2C(C(C)=O)=C(C)N=c3s/c(=C\c4cc(C)n(C)c4C)c(=O)n32)c(OC)c1 (centres undefined)	13.0	5.5	-259.6	-6.3	4.4	23.3	-30.2
Cc1ccc(-c2cc3nc(C)cc(NCc4ccco4)n3n2)cc1	-255.9	18.1	9.6	-130.4	74.3*	-5.9	-48.3
CCN1C(=O)c2cccc3c(S(=O)(=O)NCc4ccco4)ccc1c23	11.1	-7.8	2.2	8.0	16.5	-12.5	14.0
CC1(C)CC(=O)C2=C(C1)N(CCN1CCOCC1)C1=C(C(=O)CC(C)(C)C1)C2c1cccc(Cl)c1	16.0	-5.3	2.4	-17.3	-11.8	5.0	1.3
COc1ccc(S(=O)(=O)c2c(N)n(Cc3ccco3)c3nc4ccccc4nc23)cc1	-7.3	-9.1	0.1	2.7	-3.7	26.0	-2.9
Cc1c(N=Cc2c(O)n(Cc3ccco3)c(=O)c3ccccc23)c(=O)n(-c2ccccc2)n1C	-21.8	8.1	-1.6	-8.1	11.0	23.3	5.8
COc1ccc(CNC(=O)C(C#N)c2nc3ccccc3nc2N2CCCC2)cc1 (centres undefined)	11.2	-13.3	-37.7	6.7	-8.4	14.0	0.8
COCCCNC(=O)c1c(N)n(-c2ccc3c(c2)OCO3)c2nc3ccccc3nc12	-2.4	13.1	-0.4	-11.1	9.2	-3.0	5.5
Cc1ccc(S(=O)(=O)Nc2ccc(Br)cc2/C=N/n2cnnc2)cc1	-24.5	-9.6	-4.7	-8.2	-2.1	-9.0	-2.2
Cc1cccn2c(=O)c3cc(C(=O)NCCCN4CCCC4=O)n(C)c3nc12	12.1	5.5	7.8	-11.2	-3.5	1.3	-8.4
CSCSC1=C(C#N)C(c2ccccc2Cl)C(C(C)=O)=C(C)N1 (centres undefined)	-12.9	23.5	43.1	7.1	-6.8	6.2	3.9
COC(=O)c1cc(Br)ccc1-c1ccc(/C=N/n2nnnc2N)o1	-13.1	-8.1	2.7	47.5	-3.1	8.6	8.0
CCOc1ccc2nc3ccc4[nH]onc4c3c2c1	-23.2	5.7	-0.5	3.8	-23.2	-27.2	-17.7
COc1ccc2cc3cc(C(=O)Nc4ccc5c(c4)OCCO5)oc3nc2c1	-1.0	10.1	5.6	3.1	11.2	5.2	2.8
CCCN1CCCc2cc(CN)ccc21	-56.7	-1.4	-23.9	36.6	18.0	1.1	33.7
CC(=O)C1=C(C)NC(SCC(=O)c2ccc(F)cc2)=C(C#N)C1c1ccco1 (centres undefined)	-6.1	11.9	-0.1	-8.6	2.8	26.1	10.2
O=C(CN1C(=O)c2cccc3cccc1c23)Nc1ccc(S(=O)(=O)N2CCOCC2)cc1	-7.1	-10.8	-2.0	-7.8	1.3	6.3	2.9

13 consecutive entries already listed, quoted:
SMILES	697 NFkB inh	EBI2 antag	UBC13 polyUb	Jurkat NFkB inh	SENP8 block	CCR6 antagonist	Gli-Sufu antag
COc1ccc(S(=O)(=O)c2c(N)n(Cc3ccco3)c3nc4ccccc4nc23)cc1	-7.3	-9.1	0.1	2.7	-3.7	26.0	-2.9
Cc1c(N=Cc2c(O)n(Cc3ccco3)c(=O)c3ccccc23)c(=O)n(-c2ccccc2)n1C	-21.8	8.1	-1.6	-8.1	11.0	23.3	5.8
COc1ccc(CNC(=O)C(C#N)c2nc3ccccc3nc2N2CCCC2)cc1 (centres undefined)	11.2	-13.3	-37.7	6.7	-8.4	14.0	0.8
COCCCNC(=O)c1c(N)n(-c2ccc3c(c2)OCO3)c2nc3ccccc3nc12	-2.4	13.1	-0.4	-11.1	9.2	-3.0	5.5
Cc1ccc(S(=O)(=O)Nc2ccc(Br)cc2/C=N/n2cnnc2)cc1	-24.5	-9.6	-4.7	-8.2	-2.1	-9.0	-2.2
Cc1cccn2c(=O)c3cc(C(=O)NCCCN4CCCC4=O)n(C)c3nc12	12.1	5.5	7.8	-11.2	-3.5	1.3	-8.4
CSCSC1=C(C#N)C(c2ccccc2Cl)C(C(C)=O)=C(C)N1 (centres undefined)	-12.9	23.5	43.1	7.1	-6.8	6.2	3.9
COC(=O)c1cc(Br)ccc1-c1ccc(/C=N/n2nnnc2N)o1	-13.1	-8.1	2.7	47.5	-3.1	8.6	8.0
CCOc1ccc2nc3ccc4[nH]onc4c3c2c1	-23.2	5.7	-0.5	3.8	-23.2	-27.2	-17.7
COc1ccc2cc3cc(C(=O)Nc4ccc5c(c4)OCCO5)oc3nc2c1	-1.0	10.1	5.6	3.1	11.2	5.2	2.8
CCCN1CCCc2cc(CN)ccc21	-56.7	-1.4	-23.9	36.6	18.0	1.1	33.7
CC(=O)C1=C(C)NC(SCC(=O)c2ccc(F)cc2)=C(C#N)C1c1ccco1 (centres undefined)	-6.1	11.9	-0.1	-8.6	2.8	26.1	10.2
O=C(CN1C(=O)c2cccc3cccc1c23)Nc1ccc(S(=O)(=O)N2CCOCC2)cc1	-7.1	-10.8	-2.0	-7.8	1.3	6.3	2.9

A portion of the library; the hit share may differ from the screen's.
